Assay outcomes: PubChem BioAssay, National Center for Advancing Translational Sciences (NCATS)
Vaccinia mCherry: qHTS for Stage-Specific Inhibitors of Vaccinia Orthopoxvirus: mCherry Reporter Primary qHTS; Potency, µM (doses to about 36.5 µM), inactives show top-dose activity change, negative = inhibition, hits mostly inhibitors; Vaccinia virus mCherry reporter infection, fluorescence; about a quarter of the inactives have no number; 0.63% of 310,000 active; active = well fitted inhibition curve with a large enough effect; inconclusive = small, poorly fitted or top-dose-only effect; inactive = no such curve, though single readings can be large or run the other way; tested in A549 cells; also: nearly all actives have a fitted effect of over 35% in size; inactives centre near -10
VACV Venus inh: qHTS for Stage-Specific Inhibitors of Vaccinia Orthopoxvirus: Venus Reporter Primary qHTS | Vaccinia virus Venus reporter expression, fluorescence | Potency, µM (top dose mostly 36.5 µM), for the others: at the highest dose activity change, negative = inhibition, actives largely listed as inhibitors | 0.46% of 330,000 active | AID 720580, 2013; active means well fitted inhibition curve with a large enough effect; inconclusive means small, poorly fitted or top-dose-only effect; inactive means no such curve, though single readings can be large or run the other way; tested in A549 cells; also: nearly all actives have a fitted effect of over 30% in size; inactives centre near -10
* hit, by the source's call; i = inactive; ? = inconclusive; / = not tested or not shown; [ ] = remark or other dose. % is scaled to controls: 0 for no effect and ±100 for the full control effect; potency is read from the fitted curve at half-maximal effect.

SMILES | Vaccinia mCherry | VACV Venus inh
COc1ccc(C(=O)C2CCCN(Cc3nc4ccccc4nc3C)C2)cc1OC (configuration not stated) | -3.4% | -2.4%
O=C(NCc1cccnc1)c1csc([C@@H]2O[C@H](CO)[C@H](O)[C@H](O)[C@H]2O)n1 | i | -0.2%
CSCCC(NC(=O)c1ccco1)C(=O)N1CCC(C(N)=O)CC1 (configuration not stated) | -13.9% | -14.3%
COc1cc(NC(=O)c2ccc(-c3cccc(F)c3)o2)ccc1NC(=O)c1ccccc1Cl | -29.1% | -26.4%
Cc1ccc(S(=O)(=O)N2CCCCC2)cc1NC(=O)COC(=O)Cc1cccc2ccccc12 | -18.5% | -8.3%
O=C(CN1C2CCC1CC(O)(c1cccnc1)C2)Nc1ccc2c(c1)OCO2 (configuration not stated) | -10.6% | -4.5%
O=C(COC(=O)c1ccc2c(c1)OCCO2)Nc1ccccc1C(F)(F)F | -21.6% | -11.2%
Nc1c([N+](=O)[O-])cc2c3c(cccc13)CC2 | 0.5% | -3.4%
Cc1cc(C)cc(OCC(=O)NNC(=O)c2cc3ccccc3o2)c1 | i | -8.4%
CC(=O)Nc1ccc(S(=O)(=O)NCC2CCC(C(=O)NCCCN3CCCC3=O)CC2)cc1 (configuration not stated) | / | -5.1%
COc1ccc2nc(NC(=O)CSc3nc(C)cc(=O)[nH]3)sc2c1 | -23.4% | -19.7%
COc1cccc(-c2nnn(CC(=O)N(CC(C)C)C3CCS(=O)(=O)C3)n2)c1 (configuration not stated) | -17.7% | -8.9%
O=C(CSc1nc2[nH]ncc2c(=O)[nH]1)Nc1cc(C(F)(F)F)ccc1Cl | -9.2% | 3.1%
O=C(Nc1cccc(C(F)(F)F)c1)c1csc([C@@H]2O[C@H](CO)[C@@H](O)[C@H]2O)n1 | 5.7% | 10.2%
CCc1ccc(N2C(=O)C(Cl)=C(N3CCOCC3)C2=O)cc1 | -24.5% | -9.2%
Cn1cccc1C(=O)C(=O)Nc1cc(Cl)cc(Cl)c1 | -10.8% | -4.1%
COc1ccc(-c2sc(NC(C)=O)nc2-c2ccccc2)cc1 | -14.3% | -16.6%
CCN1CCN(C(=O)CSc2nc3c(c(=O)n(C)c(=O)n3C)n2C)CC1 | -8.9% | -2.5%
CCCCCCOC(=O)C1(O)CC2OC1(C)n1c3ccccc3c3c4c(c5c6ccccc6n2c5c31)C(=O)NC4 (configuration not stated) | -13.2%[3.33 µM] | -7.4%[3.33 µM]
O=C(O)c1cc(NC(=S)NC(=O)C(c2ccccc2)c2ccccc2)ccc1Cl | i | -10.3%
CCOC(=O)c1[nH]c(C)c(C(=O)N2CCN(c3ccccc3OC)CC2)c1C | i | -10.8%
COc1ccc(CNC(=O)c2ccc(NC(=O)N3CCSc4ncccc43)cc2)cc1OC | -11.4% | 1.2%
COCCNS(=O)(=O)c1ccc(C)c(C)c1C | 6.0% | 7.3%
CCCOc1ccc(NC(=O)CC2C(=O)N(c3cccc(C)c3)C(=O)N2CCc2ccncc2)cc1 (configuration not stated) | -0.7% | -4.8%
COc1cccc(CNC(=O)C2CCCN(S(=O)(=O)c3cccc4nonc34)C2)c1 (configuration not stated) | -17.7% | -10.7%
(next part)
SMILES | Vaccinia mCherry | VACV Venus inh
CC(=O)Nc1nc(S(=O)(=O)c2ccc(C)cc2)c(Cl)s1 | ? | -24.3%
COc1ccc(NC(=O)c2oc3ccccc3c2NC(=O)C23CC4CC(CC(C4)C2)C3)cc1 | -9.8% | -4.6%
CCN1CCN(Cc2ccc(NC(=O)c3cc(NC(=O)c4cnn(-c5ccccc5)c4N)cc(OC)c3)cc2C(F)(F)F)CC1 | ? | ?
Cc1ccc(NC(=O)C2CCCN(C(=O)c3ccc(Cl)cc3)C2)c(C)c1 (configuration not stated) | -9.9% | -11.2%
Cc1c(C)n2c(SCC(=O)NC3CCCCC3)nnc2[nH]c1=O | i | -2.2%
C[C@H](CO)N1C[C@H](C)[C@@H](CN(C)Cc2ccccc2)Oc2ccc(NC(=O)CCCCCC(=O)Nc3ccccc3N)cc2C1=O | i | -13.8%
Cc1cc(C)c(NC(=O)CSc2nc3ccc(NC(=O)CSc4nnnn4-c4ccccc4)cc3s2)c(C)c1 | -12.3% | -2.2%
COc1ccccc1COc1cccn2c(N(C)C(=O)CCC3CCCC3)c(C)nc12 | 10.0% | -6.7%
Cc1nc2cccnc2n1-c1cccc(C(=O)N2CCN(c3ccc(Cl)cc3)CC2)c1 | -25.6% | -27.9%
Cc1cccc(NS(=O)(=O)c2cccc(C(=O)N3CC(C)OC(C)C3)c2)c1 (configuration not stated) | -19.8% | -6.7%
COc1ccc(-c2nc(Cn3c(=O)cc(-c4ccccc4)c4c(C)nn(C)c43)c(C)o2)cc1OC | -7.6% | -23.0%
CCOc1ccccc1Oc1cn[nH]c1-c1ccc(OCC(=O)NN)cc1O | -4.1% | -5.4%
COC(=O)N/N=C/c1ccc([N+](=O)[O-])s1 | -20.3% | ?
CCOC(=O)C1=C(C)N(CCCCCC(=O)O)C(=O)NC1c1ccccc1OS(=O)(=O)c1ccc(C)cc1 (configuration not stated) | 15.7% | -5.9%
O/N=C/C1=C(Cl)c2ccccc2CC1 | -9.5% | -16.6%
N#Cc1c(-c2ccccc2)nc(SCC(=O)Nc2ccccc2)[nH]c1=O | -6.7% | -6.5%
COc1ccc(C(=O)Nc2nc3n(n2)C(c2ccccc2)C=C(c2ccccc2)N3)cc1 (configuration not stated) | 2.0% | -11.0%
O=[N+]([O-])c1ccc(N2CCCC2)nc1 | -14.0% | -15.6%
CCOC(=O)[C@]12CCCC=C1N(CCC1=CCCCC1)C(=O)[C@H](CC(=O)N1CCN(C(=O)C3CC3)CC1)C2 | -15.2% | -27.9%
CCOc1ccc(NC(=O)Cn2nnc(-c3ccccc3NC(=O)c3cccs3)n2)cc1 | i | -6.9%
COc1cc(CNc2nc3ccccc3n2Cc2ccccc2)ccc1O | ? | 6.2%
Cc1cccc(OCc2nnc(SCC(=O)N(C)C3CCCCC3)o2)c1 | -13.0% | -17.7%
COC1=CCC2([N+](=O)[O-])CN(CCO)CC1([N+](=O)[O-])C2 (configuration not stated) | i | -8.7%
Cc1cc(NC(=O)c2cc(C3CC3)on2)no1 | -8.8% | -2.9%
O=C(C[C@@H]1C/C=C\C[C@@H](Cc2ccc(F)cc2)C(=O)OC[C@H]2CCCN2C1=O)NCCO | i | -4.4%
New compounds follow:
SMILES | Vaccinia mCherry | VACV Venus inh
CC(=O)O[C@]1(C(C)=O)CC[C@H]2[C@@H]3C=C(C)C4=CC(=O)CC[C@@H]4[C@H]3CC[C@@]21C | -0.8% | -15.8%
O=C(O)/C=C/C(=O)N1CCN(c2ccccc2F)CC1 | -16.5% | -8.1%
CCc1ccccc1N(CC(=O)NCc1ccc(OC)cc1)C(=O)CCC(=O)Nc1ccccn1 | -16.8% | -14.4%
COc1ccccc1CN=Cc1[nH]c2ccc(Br)c(Cl)c2c1O | -6.6% | 9.7%
O=C(Nc1ccccc1)OCCN1CCN(Cc2ccccc2)CCC1=O | -27.8% | -2.8%
Cn1c(=O)c(=O)n(C)c2cc(C(=O)NCc3ccccc3Cl)ccc21 | -3.8% | -4.4%
CC(=O)c1ccc(S(=O)(=O)Nc2cccc(S(=O)(=O)NC3=NCCC3)c2)cc1 | i | -5.4%
COC(=O)c1ccccc1NC(=O)Cn1c(=O)n(CCCC(=O)NCc2ccccc2Cl)c(=O)c2ccccc21 | -10.6% | -1.6%
CC(C)CN(C(=O)COC(=O)c1cccc2ccccc12)c1c(N)n(Cc2ccccc2)c(=O)[nH]c1=O | -10.9% | -0.6%
Clc1ccc(-c2nnn3c2nc(NC2CCCCC2)c2ccccc23)cc1 | 6.0% | 1.1%
CCN(CC(=O)Nc1c(F)cccc1F)C(=O)CCNS(=O)(=O)c1ccc(C)c(C)c1 | -2.5% | -10.1%
COc1ccc(NC2=NCC(=O)N2c2ccccc2)c(OC)c1 | -12.8% | -1.2%
CC(C)n1c(/N=C/c2c[nH]c3ccccc23)nc2ccccc21 | -5.0% | -22.8%
CCCCOP(=O)(c1ccc(N(C)C)cc1)C(O)c1c(Cl)cccc1Cl (configuration not stated) | -18.7% | -10.6%
O=C(Cn1c2[n+](c3ccc(C(F)(F)F)cc31)CCCCC2)Nc1ccccc1 | i | -0.7%
O=C(COc1ccc2ccc(=O)oc2c1)N1CCc2ccccc21 | -1.5% | -9.7%
CCOc1cc(N2CCOCC2)c(OCC)cc1NC(=O)c1cc(-c2ccco2)nc2ccccc12 | -11.4% | -12.2%
CSc1ccc(C(=O)NC2CCSc3ccccc32)cc1 (configuration not stated) | -19.0% | -24.9%
CC1Cc2ccccc2N1C(=O)COC(=O)C1(c2ccccc2F)CCCC1 (configuration not stated) | -0.9% | -20.3%
COc1ccc(/C=N/NC(=O)c2ccc(O)cc2O)cc1CSc1ccccn1 | i | -17.9%
CCN(C(=O)COC(=O)[C@H](C)N=C1NS(=O)(=O)c2ccccc21)C1CCS(=O)(=O)C1 (some centres not stated) | -13.4% | -4.7%
COc1ccc(OC)c(NC(=O)Cn2cc(C(=O)c3cccs3)c3ccccc32)c1 | -13.2%[7.34 µM] | -5.4%[7.34 µM]
CN1CCc2c(OCC(=O)N3N=C(c4cccs4)CC3c3ccc(F)cc3)cccc2C1=O (configuration not stated) | -10.3% | -14.1%
Cn1c(N)c(C(=O)COC(=O)c2nc(Cl)ccc2Cl)c(=O)n(C)c1=O | i | 1.7%
CCc1cc2c(=O)[nH]c(Cc3ccc(Cl)cc3)nc2s1 | / | -17.8%

Some of these compounds in order of molar mass, lowest first:
SMILES | Vaccinia mCherry | VACV Venus inh
O=C(Nc1ccccc1)OCCN1CCN(Cc2ccccc2)CCC1=O | -27.8% | -2.8%
CC1Cc2ccccc2N1C(=O)COC(=O)C1(c2ccccc2F)CCCC1 (configuration not stated) | -0.9% | -20.3%
COc1ccccc1CN=Cc1[nH]c2ccc(Br)c(Cl)c2c1O | -6.6% | 9.7%
COc1ccc(/C=N/NC(=O)c2ccc(O)cc2O)cc1CSc1ccccn1 | i | -17.9%
CCCCOP(=O)(c1ccc(N(C)C)cc1)C(O)c1c(Cl)cccc1Cl (configuration not stated) | -18.7% | -10.6%

Continuation.
SMILES | Vaccinia mCherry | VACV Venus inh
COc1ccc(NS(=O)(=O)c2ccc(OC)c(N(C)S(=O)(=O)c3ccc(Cl)cc3)c2)cc1 | ? | ?
O=C(NCc1cccnc1)c1cc(C2CCCN(C(=O)C3CCCCC3)C2)on1 (configuration not stated) | i | 1.2%
CC1(C(=O)N2CCC(CC3CC(c4cccc(Br)c4)=NO3)(C(=O)NCC3CCCCC3)CC2)CC1 (configuration not stated) | -4.0% | ?
CC(=O)N1N=C(c2cccc(NS(=O)(=O)c3ccc(C)cc3)c2)CC1c1ccco1 (configuration not stated) | -4.3% | -15.9%
COCCCNC(=O)C1CCCN(c2nn3cc(-c4ccc(C)cc4)nc3s2)C1 (configuration not stated) | -9.2% | 1.3%
CCN(c1ccccc1)S(=O)(=O)c1cccc(C(=O)N2CCN(S(=O)(=O)c3ccccc3)CC2)c1 | ? | ?
O=C(Cn1c(NCCO)nc2ccccc21)NCCc1ccccc1 | i | -3.2%
Nc1ccccc1C(O)(Cc1ccccc1)c1ccccc1 (configuration not stated) | -12.7% | -3.0%
CCNC(=O)NC(=O)c1csc([N+](=O)[O-])c1 | i | -12.8%
COc1ccc(CCN2CCCC(CN(C)C(=O)c3ccoc3C)C2)cc1 (configuration not stated) | -9.0% | -0.9%
C=CCOc1ccc2ccccc2c1CNCCCN1CCOCC1 | -20.4% | -10.4%
C=C[C@@H]1c2ccccc2N(S(=O)(=O)c2ccc(C)cc2)[C@H](c2ccc(OC(C)=O)cc2)C1(C#N)C#N | ? | ?
CCCc1cc(=O)oc2c(C)c(OCC(=O)N3CCC(C(N)=O)CC3)ccc12 | 7.5% | -1.1%
O=C(NCCn1ccc2ccccc21)c1cccc([N+](=O)[O-])c1 | -12.2% | -16.8%
O=C(COc1ccc(C(=O)Nc2ccc(Cl)cc2)cc1)NCc1ccccc1 | ? | ?
CCOC(=O)CCN | -26.6% | -1.1%
CC(=O)NC(Cc1ccccc1C)C(=O)NC1CCN(C(=O)NCc2ccccc2)CC1 (configuration not stated) | -4.2% | -6.0%
COc1ccccc1-c1cnn2c(NCCc3ccccc3)cc(C)nc12 | -8.5% | -9.3%
O=C(COc1ccc(Cl)cc1)N1CCCCCCC1 | i | -9.9%
CCCS(=O)(=O)c1ncc(Cl)c(C(=O)Nc2c(C(=O)c3ccccc3)oc3ccccc23)n1 | -6.5% | 7.9%

Among those listed so far, these have a COOH group.
SMILES | Vaccinia mCherry | VACV Venus inh
O=C(O)c1cc(NC(=S)NC(=O)C(c2ccccc2)c2ccccc2)ccc1Cl | i | -10.3%
CCOC(=O)C1=C(C)N(CCCCCC(=O)O)C(=O)NC1c1ccccc1OS(=O)(=O)c1ccc(C)cc1 (configuration not stated) | 15.7% | -5.9%
O=C(O)/C=C/C(=O)N1CCN(c2ccccc2F)CC1 | -16.5% | -8.1%
